# Screens deposited in PubChem by Johns Hopkins Ion Channel Center.
# KCNQ2 inh: KCNQ2 potassium channel inhibitors, primary screen, cell-based, CHO-K1, FluxOR thallium flux, B-score (AID 2156); 20 min; active compounds read low; only compounds with negative scores are shown here; some inactives read as strong as hits; B-score at 10 µM; hit rate 1.1% among 310,000;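 active = fluorescence ratio B-score at most minus 3 library SDs, with starting brightness B-score within 2 library SDs, cut at about -5.5 in these data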
# Target sequence (O88943 whole entry, looked up): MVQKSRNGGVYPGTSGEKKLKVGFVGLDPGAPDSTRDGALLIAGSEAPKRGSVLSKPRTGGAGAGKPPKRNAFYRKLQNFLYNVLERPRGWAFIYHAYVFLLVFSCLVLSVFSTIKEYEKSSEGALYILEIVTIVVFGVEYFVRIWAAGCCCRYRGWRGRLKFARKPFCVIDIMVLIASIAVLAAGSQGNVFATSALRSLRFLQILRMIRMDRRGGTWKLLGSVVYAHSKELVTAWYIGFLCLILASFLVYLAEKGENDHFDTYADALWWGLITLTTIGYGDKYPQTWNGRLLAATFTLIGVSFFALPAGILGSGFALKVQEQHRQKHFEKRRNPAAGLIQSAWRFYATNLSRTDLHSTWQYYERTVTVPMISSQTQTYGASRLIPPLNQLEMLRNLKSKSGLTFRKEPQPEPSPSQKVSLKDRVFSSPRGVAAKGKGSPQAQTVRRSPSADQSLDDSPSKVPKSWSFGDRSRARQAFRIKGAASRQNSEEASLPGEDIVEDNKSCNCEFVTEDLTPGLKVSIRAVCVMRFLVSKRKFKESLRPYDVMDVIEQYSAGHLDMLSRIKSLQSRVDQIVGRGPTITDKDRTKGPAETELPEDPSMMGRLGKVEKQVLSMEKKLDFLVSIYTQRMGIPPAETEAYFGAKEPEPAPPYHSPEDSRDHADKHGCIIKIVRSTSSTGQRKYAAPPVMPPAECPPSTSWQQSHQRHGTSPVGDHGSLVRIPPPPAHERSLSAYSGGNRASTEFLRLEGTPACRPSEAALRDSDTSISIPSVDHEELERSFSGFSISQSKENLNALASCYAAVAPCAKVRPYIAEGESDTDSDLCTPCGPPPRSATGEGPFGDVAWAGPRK
# KCNQ2 inh baseline: further read-out of KCNQ2 inh, marked with its call; B-score; measured here: initial fluorescence intensity artifact check;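 brightness before thallium and not channel activity; 0 = typical well and far values either way flag optical interference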
# * = called active by the depositor; i = inactive.
KCNQ2 inh	KCNQ2 inh baseline	canonical_smiles
i	-0.16	COc1ccccc1/C=C/CN1CCN(Cc2ccc(F)cc2)C(CCO)C1 (stereo not given)
i	1.4	Cc1ccc(CSC2=NCCN2C(=O)c2ccc(S(=O)(=O)N(C)C)cc2)cc1
i	3.4	Cc1cc(S(=O)(=O)N2CCCCC2)ccc1OCC(=O)N1CCCC1
i	-0.02	COCCNC(=O)Cn1nc(-c2ccccc2)c2ccccc2c1=O
i	0.45	N#Cc1c(N)nc(SCC(=O)NCCc2ccccc2)c(C#N)c1-c1cccs1
i	0.45	O=C(CCC(=O)Nc1ccc(Br)cc1)N/N=C/c1ccccc1F
i	0.74	CCCCN(CCCC)C(=O)CSc1nnc(-c2cc(OC)c(OC)c(OC)c2)o1
i	0.67	O=C(NCc1cccs1)C1CC(c2ccccc2O)=NO1 (stereo not given)
i	-0.43	Cn1c(SCC(=O)N/N=C/c2ccncc2)nc2ccccc21
i	0.37	COc1cccc2c(O)c(-c3ccccc3)c(=O)[nH]c12
i	1.1	COC(=O)CCC(=O)OC1(C)C(=O)C=C2C=C(c3ccsc3)OC=C2C1=O (stereo not given)
i	1.4	COc1ccc(Cl)cc1S(=O)(=O)Nc1ccc(Cl)cn1
i	0.05	COc1ccc(C(=O)N/N=C/c2ccccc2OC(=O)c2ccccc2)cc1
i	0.6	CCc1ccc(NC(=S)Nc2cc(C(=O)O)ccc2N2CC3CC(C2)c2cccc(=O)n2C3)cc1 (stereo not given)
i	-2.2	CCCNC(=S)Nc1ccc(Nc2ccccc2)cc1
i	-2.2	COc1cc(/C=C(\C#N)C(=O)Nc2ccc3c(c2)OCCO3)ccc1O
i	0.29	CCn1nc(C(=O)N2CCN(Cc3ccc4c(c3)OCO4)CC2)c2ccccc2c1=O
i	-1	O=C(CSc1nc(O)cc(=O)n1-c1ccccc1)Nc1nc2ccccc2s1
i	-1	CN(C(=O)c1cc(COc2ccc(F)c(F)c2)on1)C1CCOC1 (stereo not given)
i	0.04	Cc1nn(C)c(C)c1/C=C(/C(=O)C(C)(C)C)n1cncn1

# 15 entries from above in another layout.
SMILES | KCNQ2 inh | KCNQ2 inh baseline
N#Cc1c(N)nc(SCC(=O)NCCc2ccccc2)c(C#N)c1-c1cccs1 | i | 0.45
O=C(CCC(=O)Nc1ccc(Br)cc1)N/N=C/c1ccccc1F | i | 0.45
CCCCN(CCCC)C(=O)CSc1nnc(-c2cc(OC)c(OC)c(OC)c2)o1 | i | 0.74
O=C(NCc1cccs1)C1CC(c2ccccc2O)=NO1 (stereo not given) | i | 0.67
Cn1c(SCC(=O)N/N=C/c2ccncc2)nc2ccccc21 | i | -0.43
COc1cccc2c(O)c(-c3ccccc3)c(=O)[nH]c12 | i | 0.37
COC(=O)CCC(=O)OC1(C)C(=O)C=C2C=C(c3ccsc3)OC=C2C1=O (stereo not given) | i | 1.1
COc1ccc(Cl)cc1S(=O)(=O)Nc1ccc(Cl)cn1 | i | 1.4
COc1ccc(C(=O)N/N=C/c2ccccc2OC(=O)c2ccccc2)cc1 | i | 0.05
CCc1ccc(NC(=S)Nc2cc(C(=O)O)ccc2N2CC3CC(C2)c2cccc(=O)n2C3)cc1 (stereo not given) | i | 0.6
CCCNC(=S)Nc1ccc(Nc2ccccc2)cc1 | i | -2.2
COc1cc(/C=C(\C#N)C(=O)Nc2ccc3c(c2)OCCO3)ccc1O | i | -2.2
CCn1nc(C(=O)N2CCN(Cc3ccc4c(c3)OCO4)CC2)c2ccccc2c1=O | i | 0.29
O=C(CSc1nc(O)cc(=O)n1-c1ccccc1)Nc1nc2ccccc2s1 | i | -1
CN(C(=O)c1cc(COc2ccc(F)c(F)c2)on1)C1CCOC1 (stereo not given) | i | -1

# (listing goes on)
KCNQ2 inh	KCNQ2 inh baseline	canonical_smiles
i	-0.63	O=C(NCCCO)c1c(O)c2cccc3c2n(c1=O)CCC3
i	0.47	COc1ccc(OC)c(NC(=O)C(CCS(C)(=O)=O)NC(C)=O)c1 (stereo not given)
i	-0.58	O=C(CSc1nnc(-c2ccccc2)o1)N1CCOCC1
i	0.01	COC(=O)c1ccc(NC(=O)c2cc(-c3ccccn3)nc3ccccc23)cc1
i	0.23	O=C(CCCN1C(=O)C(c2ccccc2)Oc2cccnc21)NCCc1ccc(Cl)cc1 (stereo not given)
i	-0.77	O=C(c1cc2ccccc2oc1=O)N(Cc1cccs1)Cc1ccccc1Cl
i	-0.95	CC1(C)Cc2c(c(-c3ccco3)[nH]c(=O)c2C#N)CS1
i	-0.09	COc1ccccc1NC(=S)NNC(=O)c1cc(C)n(C)n1
i	-1.3	CCN1CCCC1CNc1ccc(S(C)(=O)=O)cc1[N+](=O)[O-] (stereo not given)
i	1.2	O=C(N/N=C\C=C\c1ccc2c(c1)OCO2)c1ccc(F)cc1
i	-0.04	CN1N=C2c3ccccc3CCC2C1c1ccc(F)cc1 (stereo not given)
i	0.83	COc1ccc(OC)c(NC(=O)c2ccc3c(c2)C(=O)N(CC2CCCO2)C3=O)c1 (stereo not given)
i	-0.62	CCOc1ncccc1C(=O)N1CCCSC1=Nc1ccc(C(C)=O)cc1
i	-0.03	N#Cc1ccc(Cl)cc1NC(=O)COC(=O)c1ccc(S(=O)(=O)N2CCCC2)cc1
i	-1.8	O=C(Nc1c2c(nn1-c1ccc(Cl)cc1)CS(=O)(=O)C2)c1ccc2c(c1)OCO2
i	-0.04	Cc1csc(SCC(=O)NCCc2ccc(Cl)cc2Cl)n1
i	1.1	COc1ccc(CNC(=O)C2CCN(S(C)(=O)=O)CC2)cc1
i	0.75	O=C(CSc1c(Cl)cccc1Cl)N1CCC(c2nc3ccccc3s2)CC1
i	-1.3	O=[N+]([O-])c1ccc(S(=O)(=O)NCC2COc3ccccc3O2)cc1 (stereo not given)
i	-0.36	Cc1ccc(CNC(=O)c2nnn(-c3cccc(C)c3)c2N)cc1
i	1	Cn1ccnc1Sc1ccc(C=O)cc1[N+](=O)[O-]
i	-0.52	O=C(CCNC(=O)c1ccc([N+](=O)[O-])cc1)Nc1ccc(N2CCOCC2)cc1N1CCOCC1
i	-0.07	CCOc1ccccc1OCC(=O)Nc1cc(S(=O)(=O)N2CCCCC2)ccc1OC
i	0.17	O=C(Nc1nnc(SCc2ccccc2Cl)s1)c1cccc([N+](=O)[O-])c1
i	-1.1	Fc1ccc(-c2n[nH]c(=S)n2/N=C/c2c[nH]c3ccccc23)cc1
i	0.31	COc1ccc(/C=N/Nc2cc(C)nc(-n3nc(C)cc3C)n2)c(OC)c1
i	-0.96	COc1ccc2c(=O)c(-c3ccc(OC)c(OC)c3)coc2c1
i	-2	Cc1c(C(=O)N/N=C/c2ccc(O)cc2)sc(=S)n1C
i	-0.24	O=C(O)CCc1n[nH]c(=S)[nH]c1=O
i	0.3	O=C(O)c1cccc2c1C(=O)c1ccccc1C2=O
i	-1.4	O=S(=O)(NC1CCCC1)c1ccc(-n2cnnn2)cc1
i	-0.71	Cc1ccc(C(=O)CNc2ccc(C)cc2C)cc1
i	-1.9	CCN(c1ccc(NS(=O)(=O)c2cc(Cl)ccc2Cl)cc1)C(C)C
i	-0.05	S=c1[nH]nc(-c2ccc(Br)cc2)n1Cc1ccco1
i	-0.03	NC(=NC(=O)c1ccc(Cl)cc1)N1N=CCC1c1ccccc1 (stereo not given)
i	-0.58	COc1ccc(C)cc1NC(=O)c1ccc(OC(F)F)cc1
i	-0.34	COc1cc(C)nc(NCc2ccccc2)n1
i	-0.66	CN(C)CCN1C(=O)C2C(C(=O)Nc3cc(Cl)cc(Cl)c3)C3C=CC2(O3)C1C(=O)NC1CCCCC1 (stereo not given)
i	2.5	COc1cccc(OC)c1C(=O)Nc1ccc2c3c(cccc13)CC2
i	0.4	Cc1ccc(/C=N\NC(=O)Cc2cccn2C)o1
i	0.39	Cc1nc2ccccc2nc1CN1CCN(Cc2ccc(F)c(F)c2)C(CCO)C1 (stereo not given)
i	1.1	CCOC(=O)c1ccc(N=C2SC(C(=O)Nc3ccc(C(=O)O)cc3)CC(=O)N2Cc2cccs2)cc1 (stereo not given)
i	0.37	Cc1cc(C)nc(N2CCCC(C(=O)NCC(c3ccccc3)c3ccccc3)C2)n1 (stereo not given)
i	1.3	C=CCn1c(C)c(C(C)=O)c(N2CCOCC2)nc1=S
i	-0.2	Cc1nc(N2CCCCC2)c2ccsc2n1
i	-0.55	O=C(NNC1=NS(=O)(=O)c2ccccc21)c1cccc([N+](=O)[O-])c1
i	1.1	COc1ccc2c(C=O)cn(C)c2c1
i	1.2	O=C(CC1OCC2CCCN2C1=O)Nc1ccc([N+](=O)[O-])cc1 (stereo not given)
i	-0.44	Cc1ccc(C(=O)NC2CCCN(c3ccc(C(F)(F)F)cn3)C2)cn1 (stereo not given)
i	-1.3	COc1cc(CNC(=O)C2CCCC2)cc(OC)c1OC
i	1.6	CCOc1ccc(NC(=O)CCC(=O)c2ccc(Br)cc2)cc1
i	-0.93	COc1cc(CN2CCc3ccccc3C2)ccc1O
i	0.05	C=C1CCN([C@@H](CC(C)C)C(=O)NCc2ccco2)S(=O)(=O)c2ccccc21
i	-0.95	CCOc1ccc(CCNC(=O)COC(=O)/C=C/c2cccc(OC)c2)cc1OCC
i	-0.3	Cc1cc(C(=O)N[C@H](c2ccccc2)[C@@]2(C)C[C@@H]2[C@@H](C)C(=O)Nc2ccc3ccccc3c2)no1
i	0.52	O=C(NC1CCCCC1)C1c2ccccc2C(=O)N1Cc1ccc2c(c1)OCO2 (stereo not given)
i	3	Cc1ccc(OCC(=O)N(Cc2ccc(N(C)C)cc2)C2CCS(=O)(=O)C2)cc1C (stereo not given)
i	0.66	COc1ccc(CN2C(=O)c3cccnc3C2=O)cc1S(=O)(=O)NC1CCCCC1C (stereo not given)
i	-0.48	CCCNC(=O)c1c(Cl)cnn1-c1ccc(C)cc1
i	0.1	CC1(C)Cc2c(cnn2-c2ccc(F)cc2)C(NC(=O)c2ccco2)C1 (stereo not given)

# Compound profiles, from the list above. Values in the order: KCNQ2 inh	KCNQ2 inh baseline
# O=C(NC1CCCCC1)C1c2ccccc2C(=O)N1Cc1ccc2c(c1)OCO2 (stereo not given) is entered as i	0.52
# CC1(C)Cc2c(cnn2-c2ccc(F)cc2)C(NC(=O)c2ccco2)C1 (stereo not given) is entered as i	0.1

# (next part)
KCNQ2 inh	KCNQ2 inh baseline	canonical_smiles
i	-1.8	Cc1ccc(C(=O)Nc2scc(-c3ccccc3)c2C(=O)O)o1
i	-2.7	Cn1c(=O)c2c(nc(Oc3ccc4c(c3)OCO4)n2Cc2ccc(Cl)cc2)n(C)c1=O
i	0.59	C=CCN1C(=O)/C(=C\c2ccc(Cl)cc2)N=C1SCC(=O)NC1CCCCC1
i	1.1	CCS(=O)(=O)Nc1ccc(-c2cc(-c3ccccc3)c3cc(C)ccc3n2)cc1
i	0.01	O=C(CNC(=S)N(Cc1ccccc1)Cc1cccs1)NCc1ccc(F)cc1
i	0.21	C/C(=N/NS(C)(=O)=O)c1ccc2ccccc2c1
i	-0.51	CCOC(=O)c1c(Nc2ccccc2N)cc(C)nc1C
i	0.38	CCOC(=O)COc1ccccc1C1Nc2ccccc2C(=O)N1c1cccc(Cl)c1 (stereo not given)
i	0.43	CC(C)c1ccc(N2C(=O)[C@@H]3Cc4ccccc4CN3C2=O)cc1
i	-0.98	O=C(/C=C/c1ccco1)N/C(=C\c1ccccc1)C(=O)NCCc1nc2ccccc2[nH]1
i	-2.4	CCOC(=O)NC1C=CS(=O)(=O)C1 (stereo not given)
i	-0.23	O=C(c1cccs1)N1CCN(Cc2ccccc2[N+](=O)[O-])CC1
i	0.9	CC(C)C(=O)N1CCN(c2nc(-c3ccccc3)c3c(c2C#N)CC(C)(C)OC3)CC1
i	4	COc1ccc(CN2CCNC(=O)C2CC(=O)NCCN2CCCCC2=O)c(F)c1 (stereo not given)
i	2.5	CCOC(=O)c1cc(NC(=O)c2cc(C)on2)cc(C(=O)OCC)c1
i	-1.1	CCCCNC(=O)CCCCC(=O)N/N=C/c1ccccc1Cl
i	-0.11	O=S(=O)(c1ccc(F)c(F)c1F)N1CCN(C(=S)Nc2ccccc2)CC1
i	0.58	COc1ccccc1N(C)S(=O)(=O)c1ccc(Cl)c(C(=O)NNC(=O)c2ccccc2O)c1
i	0.4	CCOc1ccc2nc(NCCNS(=O)(=O)c3ccccc3)c(C#N)cc2c1
i	0.2	CCOc1cccc(C(=O)Nc2ccccc2C(=O)N2CCN(C)CC2)c1
i	2.7	CCc1cc2c(NCc3ccco3)ncnc2s1
i	2.9	O=C(NCc1ccccc1)[C@H]1C[C@@H]1[C@H](NP(=O)(c1ccccc1)c1ccccc1)c1ccccc1
i	0.74	CC(C)(C)c1ccc(C(=O)NC(=S)NCC2CCCO2)cc1 (stereo not given)
i	1.6	CCS(=O)(=O)N1CCC(C(=O)Oc2ccccc2)CC1
i	-0.25	C=CCn1c(SCC(=O)c2ccc(Cl)s2)nc2ccccc2c1=O
i	0.01	CCOC(=O)c1ccc[n+](CC(=O)c2ccc(OC)cc2)c1
i	1.6	CC1(C)CC2CC(C)(CN2C(=O)COC(=O)c2ccc(Cl)cc2N)C1 (stereo not given)
i	-0.73	CN(C)CCNC(C(=O)Nc1cc(Cl)cc(Cl)c1)c1ccccc1 (stereo not given)
i	0.02	COc1ccc(CN2CCN(Cc3ccccc3C(F)(F)F)CC2)c(OC)c1
i	0.01	O=C(Nc1cc(-c2ccccc2)[nH]n1)c1ccccc1F
i	0.55	Cc1ccc(C2NC(=O)c3c(sc4c3CCN(C)C4)N2)s1 (stereo not given)
i	-1	COc1ccc(C(CNC(=O)c2ccc(S(=O)(=O)N3CCCC3)cc2)N2CCOCC2)cc1 (stereo not given)
i	-1.3	NNc1nc2ccc(Cl)cc2s1
i	-1.4	CCOc1ccc(NC(=O)CSc2nnc(CCNC(=O)c3ccc(OC)cc3)n2CC)cc1
i	-0.1	Cc1ccc2nc(C)cc(C(=O)OCC(=O)Nc3cccnc3Cl)c2c1
i	0.25	COc1cccc(C2c3[nH]c4ccccc4c3CCN2Cc2cnn(C)c2)c1 (stereo not given)
i	0.68	O=C(O)c1cccc(N/N=C/c2cn(-c3ccccc3)nc2-c2cccs2)c1
i	1.2	COc1ccc(C)cc1NC(=O)CN1CCN(S(=O)(=O)c2ccc(C(C)C)cc2)CC1

# The list is partial; the hit share may differ from the screen's.
